Assay outcomes from PubChem.
HTT prom inh: HTT promoter inhibition. HEK293 HTT promoter firefly luciferase reporter (activity 0% = vehicle and -100% = no light), 24 h. Potency, µM (doses to about 57.5 µM), inactives show top-dose activity change, negative = inhibition, actives largely listed as inhibitors. 48,000 compounds, 0.93% hits; active = well fitted inhibition curve with a large enough effect; inconclusive = small, poorly fitted or top-dose-only effect; inactive = no such curve, though single readings can be large or run the other way; note: nearly all actives have a fitted effect of over 50% in size
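Firefly luciferase signal from promoter-reporter HEK293 cells was scaled between vehicle (0%) and zero RLU (-100%). Compounds were tested at final concentrations of up to 57.5 uM over 24 h at 37 degrees C. PTC124 at 50 uM final served as control inhibitor.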
PMP22 txn prim: PMP22 gene transcription modulation | Potency, µM (doses to about 57.5 µM), without a hit: at the highest dose activity change, negative = inhibition, hits mostly inhibitors | 43,000 compounds, 2% hits | AID 1508649 | S16 Pmp22-F2sN Schwann cells (luciferase reporters placed in the Pmp22 gene), FLuc/NLuc coincidence luminescence, 24 h; active = clear falling dose curves in both reporters; inconclusive = both reporters move, but less clearly or upward; inactive = either reporter flat; the % is the NLuc reporter signal; note: % is set by controls: 0 for no effect and ±100 for the full control effect; some results filed as inactive show a strong effect at the top dose
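Transcriptional readout in edited S16(c9) cells: two luciferases reported from the Pmp22 locus, measured in turn after 24 h compound incubation.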
Numbers without * were called inactive; u = inconclusive; x = no result given; [ ] = dose if it differs, or a comment. Potency is the fitted concentration of half-maximal effect. Hits appear at their usual frequency; any-hit rate near 2.6%.

Preview:
Each structure is followed by: HTT prom inh | PMP22 txn prim
- COc1ccc(OC)c(NC(=O)c2ccc3c(Cl)c4c(nc3c2)CCCC4)c1
→ -6% | 3%
- COc1cccc(NC(=O)CCS(=O)(=O)c2ccc3c(c2)oc(=O)n3C)c1
→ -13%[11.5 µM] | -18%
- CCOC(=O)c1oc2ccc(S(=O)(=O)n3nc(-c4ccccc4OC)cc3N)cc2c1C
→ 13µM* | 14µM*
- Cc1ccc(CN2CCN(CC(=O)Nc3ccc(C)c(C)c3)S2(=O)=O)cc1
→ -13% | 5%
- CCOc1ccc(NC(=O)C2CCCN(S(=O)(=O)c3ccc(Br)s3)C2)cc1 (centres undefined)
→ -3% | -17%

The whole of this part, from the first entry:
Each structure is followed by: HTT prom inh | PMP22 txn prim
- COc1ccc(OC)c(NC(=O)c2ccc3c(Cl)c4c(nc3c2)CCCC4)c1
→ -6% | 3%
- COc1cccc(NC(=O)CCS(=O)(=O)c2ccc3c(c2)oc(=O)n3C)c1
→ -13%[11.5 µM] | -18%
- CCOC(=O)c1oc2ccc(S(=O)(=O)n3nc(-c4ccccc4OC)cc3N)cc2c1C
→ 13µM* | 14µM*
- Cc1ccc(CN2CCN(CC(=O)Nc3ccc(C)c(C)c3)S2(=O)=O)cc1
→ -13% | 5%
- CCOc1ccc(NC(=O)C2CCCN(S(=O)(=O)c3ccc(Br)s3)C2)cc1 (centres undefined)
→ -3% | -17%
- CCOc1ccc2cc(-c3nnc(Nc4ccccc4F)s3)c(=O)oc2c1
→ 29% | -21%
- Cc1ccc(CNC(=O)c2ccc(CSCc3ccccc3Cl)o2)cc1
→ -7% | -13%
- O=C(Nc1ccc(Cl)c(C(F)(F)F)c1)C1CCCN(S(=O)(=O)c2cccc3cccnc23)C1 (centres undefined)
→ -1% | 4%
- CCN(CC)C(=O)Cn1c(=O)n(-c2ccc(OC)cc2OC)c(=O)c2c(C)c(C(=O)N(CC)CC)sc21
→ -9% | -14%
- CCOC(=O)C1CCC(CN(Cc2ccc(Cl)cc2)S(=O)(=O)c2ccc(F)c(C(=O)Nc3cccc(F)c3)c2)CC1 (centres undefined)
→ 8% | -4%
- COc1cc(OC)c(N(C)C(=O)c2c(C)oc3ncnc(N4CCCCC4)c23)cc1Cl
→ -30% | -11%
- COc1ccc(-c2csc3ncnc(Nc4cc(OC)cc(OC)c4)c23)cc1
→ u | -22%
- CCOCc1ccccc1Nc1ncnc2onc(-c3ccc(Cl)cc3)c12
→ -18% | -8%
- Cc1ccc(NC(=O)c2c(C)nc3sc(C(=O)Nc4ccc(F)cc4)c(N)c3c2-c2ccc(Cl)cc2)c(C)c1
→ -20% | 18%
- CC(C)CC(=O)Nc1ccc(Cl)c(-c2nc3ccccc3[nH]2)c1
→ -2% | 3%
- CCCCN(CC)CCCNC(=O)c1nn(C)c2c1CS(=O)(=O)c1ccccc1-2
→ 0% | 2%
- Cc1nn(CC(=O)NCCc2ccccc2Cl)c(=O)c2nn(-c3ccccc3)c(C)c12
→ -24% | -8%
- CC(=O)Nc1cc(C(=O)NCc2ccc(F)cc2)ccc1Sc1ccc(F)cc1
→ u | -18%
- COc1ccc(Br)cc1CNC(=O)c1cc(=O)[nH]c2ccc(S(=O)(=O)N3CCCCC3C)cc12 (centres undefined)
→ u | -6%
- COc1ccc(NC(=O)CC2C(=O)N(c3ccccc3)C(=O)N2CCc2sccc2C)cc1 (centres undefined)
→ -29% | -5%
- O=S(=O)(Nc1nc2n(n1)C(c1ccc(F)cc1)C=C(c1ccccc1)N2)c1ccccc1 (centres undefined)
→ -5% | -84%
- O=C1CC(c2nc3ccccc3n2CCC2CCCCC2)CN1c1ccccc1Cl (centres undefined)
→ -20% | 1%
- COCCCNc1oc(-c2ccc(COc3ccccc3C)o2)nc1C#N
→ u | -8%
- CCc1ccccc1NC(=O)c1cc2nc(-c3ccc(Br)cc3)cc(C(F)(F)F)n2n1
→ -14% | u
- COC(=O)c1ccccc1NC(=O)CCC(=O)N1CC(C)Sc2ccccc21 (centres undefined)
→ -18% | -17%
- CCC(Sc1nnc(C)n2c1cc1occc12)C(=O)Nc1ccccc1F (centres undefined)
→ -3% | u
- CCc1ccccc1NC(=O)CN(c1cccc(C)c1C)S(C)(=O)=O
→ -16% | -8%
- CCOc1ccc(N2CC(c3nc4ccccc4n3CCC3CCCCC3)CC2=O)cc1 (centres undefined)
→ -16% | u
- COc1cc(NC(=O)CCNC(=O)Cn2cnc3ccccc3c2=O)cc(OC)c1OC
→ -8%[11.5 µM] | 0%
- C=Cc1ccc(Cn2c(C)c(CNCc3cccc(Br)c3)c(C(=O)O)c2C)cc1
→ 16% | -2%
- COc1cc(Nc2nc3ccc(Cl)cc3nc2-n2nc(C)cc2C)cc(OC)c1
→ 0% | 6%
- Cc1nnc(SCC(=O)Nc2ccc(Br)cc2)[nH]c1=O
→ -21% | -54%
- Cc1nc2c(c(C)nn2-c2ccccc2)c(C)c1CCC(=O)Nc1ccccc1
→ 15% | -25%
- Cc1ccc(S(=O)(=O)c2nnn3c2nc(N2CCC(C(N)=O)CC2)c2cc(Cl)ccc23)cc1C
→ -9% | 16µM*
- CCCn1ccc2c(OCC(=O)Nc3ccccc3OCC)cccc2c1=O
→ -10% | u
- O=C(OCc1cc(=O)n2nc(-c3cccs3)sc2n1)c1ccccc1Br
→ -3% | 10%
- COc1ccc(S(=O)(=O)Nc2ccc3c(c2)N(C(C)=O)CCC3)cc1F
→ u | u
- CCc1ccccc1S(=O)(=O)Cc1ccc(C(=O)NCCc2ccc(C)cc2)o1
→ u | -12%
- O=C(CCn1c(=O)c2cccn2c2cccnc21)NCc1ccc(F)cc1
→ 1% | -10%
- Cc1ccc(S(=O)Cc2ccc(C(=O)NCc3ccc(OC(C)C)cc3)o2)cc1 (centres undefined)
→ -19% | -11%
- Cc1c(C(=O)N2CCCCCC2)c(S(=O)(=O)Nc2cccc(C#N)c2)c(C)n1C
→ 4% | -2%
- Cc1cccc(Cn2c(C)c(CNC3CCCCCC3)c(C(=O)O)c2C)c1
→ -18% | -8%
- COc1ccc(S(=O)(=O)Nc2c(C)nc3nc[nH]n3c2=O)cc1
→ -4% | 21%
- Cc1ccc(C(=O)COC(=O)CCC(=O)Nc2ccc(Oc3ccccc3)cc2)cc1C
→ -11% | 0%
- CCOc1ccc(NC(=O)Cn2cc(C(=O)C3CC3)c3ccccc32)cc1
→ -7% | -11%
- COc1ccccc1CNS(=O)(=O)c1ccc(F)c(C(=O)Nc2cc(Cl)ccc2OC)c1
→ u | u
- Cc1ccc2c(c1)cc(C(=O)Nc1ccc(F)cc1F)n2C
→ 14% | -30%
- COc1cccc(C(=O)Nc2cc(-c3ccccc3)no2)c1
→ 39%[activator] | u
- Cc1ccc(C)c(NC(=O)Cn2cc(S(=O)(=O)N3CCCC3)c(S(=O)(=O)N3CCCC3)c2)c1
→ 6%[11.5 µM] | 15%
- CCOc1ccc(CNC(=O)CSc2cc(=O)n(CC)c3ccccc23)cc1
→ -16% | u
- COc1ccc(NC(=O)c2cc(S(=O)(=O)NCCC3=CCCCC3)ccc2F)cc1
→ u | u
- CCOc1ccc(CCNC(=O)c2cn(C)c3ccc(S(=O)(=O)N4CCOCC4)cc3c2=O)cc1OCC
→ 13% | -4%
- CCCOc1ccc(C2c3c(-c4ccccc4O)n[nH]c3C(=O)N2CCCOCC)cc1OCC (centres undefined)
→ u | u
- CCc1ccc(-n2c(=O)c3c4c(sc3n(CC(=O)c3ccc(Br)cc3)c2=O)CCC4)cc1
→ -14% | u
- Cc1ccc(CNCc2c(C(=O)O)c(C)n(Cc3ccc(C)cc3)c2C)cc1
→ -16% | -32%
- Cc1ccc(CCn2c3c(c4cc(Cl)ccc42)CN(C)CC3)cn1
→ -3% | x
- C#CCOc1ccc(C2CC(=O)Nc3c2c(C)nn3-c2nc(C)cc(C)n2)cc1 (centres undefined)
→ u | -11%
- CCOc1ccc(C(=O)NCCc2csc(-c3cccc(C)c3)n2)cc1
→ -9% | -9%
- Cc1cc(C(=O)N2CCN(c3ccc(F)cc3)CC2)c2c(C)nn(-c3cccc(Cl)c3C)c2n1
→ -13% | -23%
- O=C(CSc1nnc(-c2cccs2)o1)Nc1cccc(C(F)(F)F)c1
→ -19%[11.5 µM] | 1%

Going on with the list:
Each structure is followed by: HTT prom inh | PMP22 txn prim
- Cc1ccc(-n2ncc(C(=O)NC3CCCCC3)c2C2CCN(C(=O)OC(C)(C)C)CC2)cc1
→ 7% | -3%
- COc1ccc(Cn2c(CNS(=O)(=O)c3ccc(Cl)s3)nc3cccnc32)cc1
→ -16% | -48%
- Cc1ccc(CNC(=O)C2CCN(C(=O)c3cnn(-c4ccccc4)c3-n3cccc3)CC2)cc1
→ u | u
- COc1ccc(C(=O)c2cn(Cc3ccccc3F)c3ccc(F)cc3c2=O)cc1
→ -33% | -16%
- Nc1nnc(-c2cccc(Cl)c2Cl)c(N)n1
→ u | x
- O=C(CSc1cn(CCNC(=O)c2ccccc2F)c2ccccc12)Nc1ccc2c(c1)OCCO2
→ -6% | u
- O=C(NC1CCCCC1)c1ccc2c(c1)N(Cc1ccccc1Cl)C(=O)c1ccccc1S2
→ -2% | -4%
- COc1cccc(CNC(=O)Cn2ccc3cc(S(=O)(=O)N4CCCC4)ccc32)c1OC
→ -21% | -2%
- COc1ccc(CCN2C(=O)NC(NC(=O)c3ccccc3OC)(C(F)(F)F)C2=O)cc1OC (centres undefined)
→ -29% | 3%
- CCc1nn(CCCC(=O)NC(C)c2ccccc2)c(=O)c2cc3occc3n12 (centres undefined)
→ -11% | u
- COc1ccc(-c2cn3nc(N4CCCC(C(=O)Nc5cccc(Cl)c5C)C4)sc3n2)cc1 (centres undefined)
→ -18% | u
- Cc1ccc(C(CC(=O)Nc2ccc(C)cc2C)N2Cc3ccccc3C2=O)cc1 (centres undefined)
→ u | u
- COc1ccc(OC(=O)c2nc(SCc3ccc(F)cc3)ncc2Cl)cc1
→ -4% | -13%
- Cc1nc(N2CCOCC2)c2c(C(=O)NCCc3ccccc3)c(C)oc2n1
→ 27% | u
- COC(=O)c1ccc(OC)c(Cn2c(=O)n(-c3cccc(Cl)c3)c(=O)c3c4c(sc32)CN(C(C)=O)CC4)c1
→ -14% | u
- CCN(CC)CCCNC(=O)c1nn(-c2ccc(OC)c(Cl)c2)c(=O)c2c1c1ccccc1n2C
→ -1% | -16%
- Cc1ccc(C)c(N2CCN(C(=O)c3ccc4c(=O)n(CCc5ccccc5)c(=O)[nH]c4c3)CC2)c1
→ -3% | -32%
- COc1cc(C(=O)Oc2c(Sc3ccccc3)c(C)nn2-c2ccccc2)cc(OC)c1OC
→ -25% | -20%
- Cc1cc(N2CCC(C(=O)Nc3ccccc3Cl)CC2)n2nc(C)c(-c3ccc(Cl)cc3)c2n1
→ -6% | 2%
- COc1cccc(CNC(=O)CCS(=O)(=O)c2cc3c(cc2C)NC(=O)CO3)c1
→ -6% | -3%
- CCN(c1ccccc1)S(=O)(=O)c1nnc(NC(=O)COc2cccc(C)c2)s1
→ -7% | 1%
- CCc1cccc(NC(=O)Cn2c(=O)n3nc(-c4cccc(F)c4)nc3c3ccccc32)c1
→ -23% | -5%
- CC[C@H](C)C(=O)O[C@H]1C[C@@H](C)C=C2C=C[C@H](C)[C@H](CC[C@@H]3C[C@@H](O)CC(=O)O3)[C@H]21
→ u | x
- Cc1c(C(=O)Nc2ccccc2Cl)sc2ncnc(N(C)C3CCCCC3)c12
→ -19% | -7%
- Cc1ccccc1NC(=O)Nc1nnc(N(C)Cc2ccccc2)s1
→ -14% | -7%
- COCCCCC(=NOCCN)c1ccc(C(F)(F)F)cc1
→ u | x
- O=C(NCc1ccc(Cl)cc1)c1ccc2oc(=O)n(Cc3ccccc3)c2c1
→ u | u
- O=S(=O)(NCC(c1ccco1)N1CCN(c2ccc(F)cc2)CC1)c1ccccc1 (centres undefined)
→ u | 14%
- CCC(=O)N1CCc2cc(Br)cc(S(=O)(=O)CCC(=O)NCc3ccc(Cl)cc3)c21
→ -13% | -54%
- Cc1cc2oc(=O)c(CC(=O)O)c(C)c2c2occ(-c3ccc(F)cc3)c12
→ 48%[activator] | 2%
- Cc1oc2ncn(C)c(=O)c2c1C(=O)N1CCN(c2cccc(C(F)(F)F)c2)CC1
→ 0% | 7%
- O=C(NCCc1ccc(Cl)cc1)c1ccc2c(c1)N(Cc1ccccc1F)C(=O)c1ccccc1S2(=O)=O
→ 10% | -19%
- CCOc1ccc(NC(=O)CSc2oc(-c3ccc(F)cc3)nc2S(=O)(=O)c2ccc(C)cc2)cc1
→ -1% | 12µM*
- COc1ccc(-n2c(/C=C/c3c(C)[nH]c4ccccc34)nc3ccccc3c2=O)cc1
→ -6% | -25%
- COc1ccc(NC(=O)C(=O)NCCc2csc3nc(-c4ccccc4F)nn23)cc1OC
→ 6% | -6%
- CC1(C)O[C@@H]2C[C@H]3[C@@H]4CCC5=CC(=O)C=C[C@]5(C)[C@@H]4[C@@H](O)C[C@]3(C)[C@]2(C(=O)CO)O1
→ -4% | x
- Cc1ccc(Cl)cc1NC(=O)c1oc2ccc(S(=O)(=O)N3CCCCC3)cc2c1C
→ -16% | -9%
- COc1ccccc1Nc1nc(N)nc(N)c1S(=O)(=O)c1ccccc1
→ -2% | u
- Cc1ccc(CSc2nnc(CCNC(=O)OC(C)(C)C)o2)cc1
→ -18% | -32%
- COc1ccccc1N1CCN(C(=O)c2cnn(C(C)(C)C)c2C2CCN(C(=O)OC(C)(C)C)CC2)CC1
→ -12% | -25%
